FGF22 binding: binders of recombinant human FGF22 by thermal shift; Q9HCT0; SYPRO orange fluorescence; percent of sucrose octasulfate shift, DMSO zero; calls only at 9.99 µM; hit rate 1.5% among 340,000;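 active = melting point raised past a set limit in the mean and every replicate; three in four hits are not shown here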
UCH37 DUB inh: human UCH37 deubiquitinating enzyme inhibition | Q9Y5K5 | purified proteasome/UCH37, Ub-AMC cleavage fluorescence | inhibition, % (no concentration beside the values) | hit rate 0.33% among 330,000 | AID 588478;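 active = mean of two replicates above 20%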;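 note: 0% = compound-free wells with enzyme and 100% = wells lacking proteasome; stock transfer was 100 nL into about 20 µL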
Target sequence (Q9Y5K5 whole entry, looked up): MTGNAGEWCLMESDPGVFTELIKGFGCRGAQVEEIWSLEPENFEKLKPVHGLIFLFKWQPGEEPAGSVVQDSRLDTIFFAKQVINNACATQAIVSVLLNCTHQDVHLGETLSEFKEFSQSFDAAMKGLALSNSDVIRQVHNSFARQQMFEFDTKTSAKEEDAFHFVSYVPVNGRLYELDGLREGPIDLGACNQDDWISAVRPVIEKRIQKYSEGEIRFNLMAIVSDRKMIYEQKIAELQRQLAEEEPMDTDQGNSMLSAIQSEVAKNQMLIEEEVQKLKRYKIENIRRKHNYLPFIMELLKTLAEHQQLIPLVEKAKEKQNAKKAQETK
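Schedule: 30 min plus 25 min, room temperature / Material: human UCH37 within purified proteasomes / Technique: AMC fluorescence intensity at 355/460 nm / Buffer or medium: pH 7.4 Tris-HCl (50 mM) with ovalbumin, ATP-MgCl2, DTT / Controls: wells without proteasome as full block, compound-free enzyme plus substrate as uninhibited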
Beta cell apopt: blocks beta cell apoptosis. INS-1E cytokine-induced death, ATP luminescence, 48 h; percent of positive-control rescue, neutral wells zero. protection from apoptosis, % (no concentration beside the values). hit rate 0.8% among 300,000. AID 435005;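 active = all replicates at 75% or more, or half of them and the mean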;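 note: 0% = cytokine-treated negative control wells and 100% = positive control rescue; higher means more ATP so stronger rescue from cytokine killing; wells of about 40 µL received 100 nL stock; the first replicate is given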
T cruzi inh: T. cruzi replication inhibition; hit rate 1.4% among 300,000; T. cruzi beta-gal in NIH3T3, luminescence, 90 h; inhibition, % (no concentration beside the values);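 active = mean inhibition across valid replicates above about 55%, limit read from the data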;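 note: signal also drops with host cell toxicity which is not excluded here; 0% = plate median of DMSO wells and 100% = zero luminescence signal; higher percent means less beta-gal luminescence so fewer parasites; stock transfer was 50 nL into about 50 µL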
Ecoli rRNA inh: inhibitors of bacterial rRNA selective over humanized ribosomes. E. coli WT GFP vs humanized-ribosome RFP mutants, fluorescence, 24 h; stronger effect = lower value; DMSO median 0, no signal -100. GFP signal change (wild-type ribosome), % (concentration not given with the values). hit rate 1.6% among 350,000;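 active = significant combined selectivity score with lowered wild-type GFP, culture density cut under 30%, mutant RFP and density less affected; inactive = any of these conditions unmet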; note: one replicate is shown; some compounds called inactive have numbers as strong as hits
MLL AF4-AF9 inh: inhibitors of human MLL-AF4/AF9 interaction; hit rate 0.47% among 350,000; P42568; inhibition, % at 10 µM; AID 651704; AlphaScreen, biotin-AF4 peptide binding to FLAG-AF9;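 active = every replicate reaching a set inhibition limit, whatever the replicate mean, cut at about 25% in these data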;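 note: 0% = plate neutral control median and 100% = total signal loss; the record names both 10 and 1 µM as test concentration; the first replicate is given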
Target sequence (P42568 whole entry, looked up): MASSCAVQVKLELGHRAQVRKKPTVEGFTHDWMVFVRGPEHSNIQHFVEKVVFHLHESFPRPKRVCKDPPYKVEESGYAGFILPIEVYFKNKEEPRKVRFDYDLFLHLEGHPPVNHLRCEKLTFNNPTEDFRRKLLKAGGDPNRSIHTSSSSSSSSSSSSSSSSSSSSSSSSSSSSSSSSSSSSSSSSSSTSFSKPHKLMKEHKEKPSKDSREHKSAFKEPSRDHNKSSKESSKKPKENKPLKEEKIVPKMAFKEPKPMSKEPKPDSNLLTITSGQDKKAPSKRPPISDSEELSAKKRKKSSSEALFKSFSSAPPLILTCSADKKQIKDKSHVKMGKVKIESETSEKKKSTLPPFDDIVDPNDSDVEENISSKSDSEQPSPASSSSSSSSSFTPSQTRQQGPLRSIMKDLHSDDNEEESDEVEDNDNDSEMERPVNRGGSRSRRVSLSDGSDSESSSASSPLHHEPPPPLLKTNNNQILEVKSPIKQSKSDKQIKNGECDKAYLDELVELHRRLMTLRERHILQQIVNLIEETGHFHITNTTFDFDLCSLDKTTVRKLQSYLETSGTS
E coli growth: blocks Escherichia coli growth; OD600 absorbance (no concentration beside the values); OD600, 23 h; stronger effect = lower value; AID 1053175; hit rate 0.21% among 330,000;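 active = OD600 absorbance below the run mean of sample wells minus 3.6 SD, in any replicate, cut at about 0.56 in these data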;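 note: stock transfer was 300 nL into about 60 µL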
Bfl-1 A1 inh: inhibitors of the anti-apoptotic protein A1, read as caspase activation; MEF A1-2A-BIM cells, Caspase-Glo 3/7 luminescence, 3 h; percent of clofoctol response, vehicle zero; caspase activation, % (concentration not given with the values); hit rate 0.066% among 330,000; AID 2462;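 active = over half of replicate activation scores above 10%, or exactly half above 10 with the replicate mean above 10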;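 note: wells of about 30 µL received 50 nL stock; many hits fall short of the cut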
Ecoli rRNA inh OD600: further read-out of Ecoli rRNA inh, marked with its call; OD600 change, %; measured here: OD600 growth;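 optical density of the mix in the first replicate; 0 = DMSO median and -100 = no signal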
Ecoli rRNA inh RFP: further read-out of Ecoli rRNA inh, marked with its call; RFP signal change, %; measured here: RFP humanized mutant strains;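 first replicate; 0 = DMSO median and -100 = no signal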
An asterisk follows results filed as active; i = inactive; nt = no result given.

compound,FGF22 binding,UCH37 DUB inh,Beta cell apopt,T cruzi inh,Ecoli rRNA inh,Ecoli rRNA inh OD600,Ecoli rRNA inh RFP,MLL AF4-AF9 inh,E coli growth,Bfl-1 A1 inh
CCOc1ccccc1N(CC(=O)NC1CCCCC1)C(=O)CCC(=O)Nc1cc(C)ccn1,i,1.4,3.0,nt,-3.5,-13.9,-0.3,-0.5,0.716,0.2
O=C(NCc1ccco1)c1cccn2c(=O)c3c4c(sc3nc12)CCCC4,nt,-0.3,2.5,-2.4,nt,nt,nt,nt,0.685,0.2
O=C(CN1CCCC1)N1CCCc2ccccc21,i,2.6,-1.2,-4.4,28.3,24.4,3.3,0.1,0.638,0.4
Cc1ccc(S(=O)(=O)Nc2ccc(C(N)=O)cc2)cc1[N+](=O)[O-],i,1.8,0.7,-1.3,13.6,10.5,2.9,0.3,0.67,0.5
COc1cccc(CNC(=O)c2cccc(S(=O)(=O)N3CCN(C)CC3)c2)c1,i,5.1,-0.8,-1.9,4.3,2.4,-1.8,0.9,0.701,-0.1
COc1ccc(NC(=O)NNC(=O)COc2ccc3cc(Br)ccc3c2)c(OC)c1,i,1.2,-0.4,11.2,7.4,9.5,0.6,-4.9,0.749,0.3
CN(C(=O)CCc1nc2ccccc2s1)c1ccccc1,i,0.0,nt,21.6,-18.5,-1.1,10.6,-47.3,0.691,0.5
COc1ccc(N/C=C2\C(=O)CCc3c2oc2cc(Cl)c(O)c(Cl)c32)cc1,i,10.3,3.6,34.4,6.9,7.9,1.9,-1.1,0.644,-0.6
c1ccc(NC2=Nc3ccccc3CC2)cc1,nt,-1.8,-3.9,-12.0,nt,nt,nt,nt,0.747,-1.7
Cc1ccc(-c2c(C(=O)O)c3ccccc3[nH]c2=O)cc1,i,-11.1,2.5,2.6,10.2,15.8,-1.2,0.6,0.68,1.8
CC(C)OC(=O)/C(=C\C=C\c1ccccc1)NC(=O)c1ccccc1,nt,0.4,-5.8,21.6,nt,nt,nt,nt,nt,-0.3
COc1cc(/C=N/NC(=O)c2ccc(CSc3nncn3C)cc2)cc(OC)c1O,nt,nt,3.3,-15.1,7.3,3.8,-1.9,0.8,nt,0.8
O=C(O)C1CCCN1S(=O)(=O)c1cc(Cl)ccc1Cl (centres undefined),i,3.6,-2.4,0.7,5.3,4.7,0.4,1.6,0.732,0.0
COc1cc(/C=C/CN2CCN(Cc3ccc(C)o3)C(CCO)C2)ccc1O (centres undefined),i,0.5,-13.6,-7.9,12.1,17.5,3.0,2.4,0.654,-0.8
O=C(Nc1ccc(Cl)cn1)c1cc2ccccc2o1,nt,-1.2,-4.1,-3.8,nt,nt,nt,nt,0.677,-0.6
CCOC(=O)c1cnc(-n2nc(C)cc2C)nc1NCc1ccccc1,nt,5.0,98.8*,61.6*,nt,nt,nt,nt,0.662,0.6
CCOc1cc(N2CCOCC2)c(OCC)cc1NC(=O)c1ccc(F)c(S(=O)(=O)N2CCOCC2)c1,i,4.6,nt,nt,6.1,6.4,-2.6,0.1,0.67,nt
CC(CC(=O)Nc1ccc(S(=O)(=O)Nc2ncccn2)cc1)c1ccccc1 (centres undefined),i,4.2,4.6,-1.5,1.6,-0.2,0.6,0.6,0.665,-1.0
COc1ccc(CNCCS(=O)(=O)NN2CCOCC2)cc1,i,2.4,nt,nt,22.6,13.3,-0.4,1.9,0.703,nt
COc1cccc(-c2nc(CS(=O)CC(=O)NCc3ccccc3)c(C)o2)c1 (centres undefined),i,4.9,-8.5,9.0,-2.5,-17.9,1.8,5.7,0.778,0.4
N#C/C(=C\c1c(Oc2ccc(Cl)cc2)nc2ccccn2c1=O)C(=O)NC1CCS(=O)(=O)C1 (centres undefined),i,-61.5,-5.3,-9.5,4.5,12.7,0.8,-1.5,0.639,0.6
CN(C(=O)c1cccc(N2C(=O)C3CC=CCC3C2=O)c1)C1CCCCC1 (centres undefined),nt,3.4,1.1,-24.0,nt,nt,nt,nt,0.699,0.0
CCOC(=O)c1c(S(=O)(=O)NCC(=O)Nc2ccc(C)cc2)c(C)n(C)c1C,i,3.0,3.2,-12.4,-2.0,6.8,4.1,3.5,0.705,-1.4
Cc1c(C(=O)O)nn(-c2cccc(C(F)(F)F)c2)c(=O)c1C#N,i,-5.2,-2.7,-13.8,17.8,18.2,4.3,-3.3,0.682,0.0
CC1CC(C)CN(C(=O)c2ccc(S(=O)(=O)N3CCCCC3)cc2)C1 (centres undefined),i,4.1,-1.7,6.9,3.6,5.7,-1.6,0.9,0.724,1.3
CN1CCc2nc(NC(=O)c3cccc(OC(F)F)c3)sc2C1,nt,2.0,0.4,28.4,nt,nt,nt,nt,0.688,-0.5
CCN(Cc1ccc(OC)c(F)c1)C(=O)CCl,i,1.4,-16.0,8.0,11.5,12.6,-0.6,-1.5,0.674,-0.1
O=C(CSCc1c(F)cccc1Cl)NCCc1ccccc1,i,3.5,nt,0.4,-27.6,-34.8,-6.4,-11.1,0.681,-0.3
O=C(OCc1nnc(-c2ccc(Cl)cc2)o1)C12CC3CC(CC(O)(C3)C1)C2,i,-1.1,-3.1,4.3,-23.3,-29.8,-3.3,-14.5,0.608,-2.3
Cc1ccc(NC(=O)CCNS(=O)(=O)c2ccccc2)c(C(=O)c2ccccc2)c1,nt,4.7,nt,-0.5,nt,nt,nt,nt,0.686,1.1

Rewritten as labelled records: entries from further up
Compound: COc1cc(/C=C/CN2CCN(Cc3ccc(C)o3)C(CCO)C2)ccc1O (centres undefined)
  FGF22 binding: i; UCH37 DUB inh: 0.5; Beta cell apopt: -13.6; T cruzi inh: -7.9; Ecoli rRNA inh: 12.1; Ecoli rRNA inh OD600: 17.5; Ecoli rRNA inh RFP: 3.0; MLL AF4-AF9 inh: 2.4; E coli growth: 0.654; Bfl-1 A1 inh: -0.8

Compound: CCOC(=O)c1cnc(-n2nc(C)cc2C)nc1NCc1ccccc1
  FGF22 binding: nt; UCH37 DUB inh: 5.0; Beta cell apopt: 98.8*; T cruzi inh: 61.6*; Ecoli rRNA inh: nt; Ecoli rRNA inh OD600: nt; Ecoli rRNA inh RFP: nt; MLL AF4-AF9 inh: nt; E coli growth: 0.662; Bfl-1 A1 inh: 0.6

Compound: CN(C(=O)c1cccc(N2C(=O)C3CC=CCC3C2=O)c1)C1CCCCC1 (centres undefined)
  FGF22 binding: nt; UCH37 DUB inh: 3.4; Beta cell apopt: 1.1; T cruzi inh: -24.0; Ecoli rRNA inh: nt; Ecoli rRNA inh OD600: nt; Ecoli rRNA inh RFP: nt; MLL AF4-AF9 inh: nt; E coli growth: 0.699; Bfl-1 A1 inh: 0.0

Compound: O=C(O)C1CCCN1S(=O)(=O)c1cc(Cl)ccc1Cl (centres undefined)
  FGF22 binding: i; UCH37 DUB inh: 3.6; Beta cell apopt: -2.4; T cruzi inh: 0.7; Ecoli rRNA inh: 5.3; Ecoli rRNA inh OD600: 4.7; Ecoli rRNA inh RFP: 0.4; MLL AF4-AF9 inh: 1.6; E coli growth: 0.732; Bfl-1 A1 inh: 0.0

Following part:
Values run as follows: FGF22 binding	UCH37 DUB inh	Beta cell apopt	T cruzi inh	Ecoli rRNA inh	Ecoli rRNA inh OD600	Ecoli rRNA inh RFP	MLL AF4-AF9 inh	E coli growth	Bfl-1 A1 inh
CCCCN(C(=O)CSc1nnc(-c2ccco2)o1)c1c(N)n(Cc2ccccc2)c(=O)[nH]c1=O
 : i	-0.8	0.6	-12.1	8.2	6.1	4.3	3.1	0.725	0.3
CCCCCN(C(=O)CCC(=O)OCC(=O)c1ccc(C(C)(C)C)cc1)c1c(N)n(CCCC)c(=O)[nH]c1=O
 : i	2.4	2.9	17.5	10.9	13.1	0.7	-1.5	0.667	-0.6
Cc1cccc(CSc2nnc3c(n2)[nH]c2ccccc23)c1
 : i	2.0	29.6	8.6	16.0	5.9	-1.2	nt	0.642	0.7
O=C(c1ccc2nc(N3CCOCC3)sc2c1)N1CCN(C(=O)c2ccco2)CC1
 : i	2.0	nt	-5.5	-2.5	-3.3	-3.1	1.5	0.747	0.5
Cc1cccc(Cn2nc(C)cc2NC(=O)Cn2cc([N+](=O)[O-])cn2)c1
 : i	3.7	-8.6	10.0	1.3	10.4	-1.0	-1.0	0.703	0.5
OCCNCc1cccc(OCc2ccccc2Cl)c1
 : i	2.6	1.7	7.5	4.8	2.8	-0.7	0.6	0.636	0.3
CC1(C)CC(C#N)(N2CCOCC2)CCO1 (centres undefined)
 : nt	6.5	-2.4	-7.7	17.9	19.7	1.0	nt	0.735	0.2
COc1ccc(S(=O)(=O)N(C)c2ccc(C(=O)Nc3c(C)n(C)n(-c4ccccc4)c3=O)cc2)cc1
 : i	-1.5	-2.9	2.3	-0.8	-8.2	0.2	0.5	0.731	-0.1
O=C(COC(=O)COc1ccccc1F)NCc1ccco1
 : i	3.9	-1.0	nt	1.8	11.0	-2.6	-1.8	0.729	0.7
CCOC(=O)c1c(S(=O)(=O)NCC(=O)NCc2ccccc2)c(C)n(C)c1C
 : i	-1.2	-1.7	-19.0	-3.3	-3.0	-3.8	1.4	0.64	-0.7
O=C(O)C1CC(=O)N(Cc2cccs2)C1 (centres undefined)
 : i	1.1	2.9	-11.9	16.8	13.4	-4.3	-1.3	0.652	-1.1
CC(=O)Oc1cc(O)c2c(=O)c(OC(C)=O)c(-c3ccc(OC(C)=O)c(OC(C)=O)c3)oc2c1
 : nt	5.9	-20.0	-14.7	nt	nt	nt	nt	0.618	0.0
COc1ccc(S(=O)(=O)NNC(=O)C(=O)NNc2ccccn2)cc1
 : i	4.3	-1.7	-10.2	-30.7*	1.6*	-10.2*	0.5	0.65	0.6
O=c1oc2ccc(Cl)cc2nc1/C=C(\O)c1ccco1
 : nt	5.4	-5.7	6.8	-12.5	-5.7	4.2	-4.7	0.692	1.0

Compound activity from PubChem.

An excerpt (hit frequency here may not be typical).
